From PubChem
Mtb growth: M. tuberculosis H37Rv growth inhibitors, H37Rv strain (AID 1626); M. tuberculosis H37Rv growth inhibition; higher % means a stronger effect; inhibition, % at 10 µM, or IC50 in µM where a hit was titrated; actives 0.95% (n = 220,000);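 active means confirmed in a dose series; inconclusive means inhibition above 80% but not taken into the dose series; inactive means below 80% or under 30% at every dose of the series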;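 further: bacteria incubated seven days before Alamar blue readout; 0% = bacteria only wells and 100% = bacteria with antibiotic wells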
RecA intein inh: blocks M. tuberculosis RecA intein splicing; actives 0.75% (n = 290,000); cell-free RecA intein splicing, fluorescence; inhibition, %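 (about 9 µM by stock and volumes)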; in the data active means inhibition above about 30%; inconclusive means no clear call, values can overlap the other calls;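 further: 0% = vehicle wells and 100% = reference inhibitor control wells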
Target sequence (P9WHJ3 whole entry, looked up): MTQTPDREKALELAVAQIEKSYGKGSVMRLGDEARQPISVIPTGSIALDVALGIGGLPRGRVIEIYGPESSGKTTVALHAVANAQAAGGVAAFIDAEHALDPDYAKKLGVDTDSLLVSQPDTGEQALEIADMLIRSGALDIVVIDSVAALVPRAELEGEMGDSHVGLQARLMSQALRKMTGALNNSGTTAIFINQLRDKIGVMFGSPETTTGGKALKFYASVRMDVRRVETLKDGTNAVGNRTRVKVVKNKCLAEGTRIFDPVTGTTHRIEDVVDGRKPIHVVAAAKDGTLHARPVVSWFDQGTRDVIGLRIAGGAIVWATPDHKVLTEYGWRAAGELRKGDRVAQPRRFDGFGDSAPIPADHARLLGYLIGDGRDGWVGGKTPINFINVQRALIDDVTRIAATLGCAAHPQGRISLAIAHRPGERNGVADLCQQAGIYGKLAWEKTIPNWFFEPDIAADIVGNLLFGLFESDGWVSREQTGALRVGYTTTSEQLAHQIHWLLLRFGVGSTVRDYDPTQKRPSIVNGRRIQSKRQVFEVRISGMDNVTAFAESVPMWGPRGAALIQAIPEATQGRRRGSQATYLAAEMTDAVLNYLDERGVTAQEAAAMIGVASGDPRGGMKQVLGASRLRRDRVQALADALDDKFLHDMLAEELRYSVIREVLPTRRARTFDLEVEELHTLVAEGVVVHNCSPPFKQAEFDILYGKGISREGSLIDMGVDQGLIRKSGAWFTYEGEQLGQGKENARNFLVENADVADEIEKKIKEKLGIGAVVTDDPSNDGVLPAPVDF
Mtb betalactam: beta-lactam sensitization of Mtb H37Rv | M. tuberculosis H37Rv growth with meropenem, percent inhibition; hits of this screen are not shown here | inhibition, % at 25 µM | actives 0.27% (n = 330,000) | AID 434955;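 active means about 74% or more and at least 40 points above the plate without the antibiotic, then above 30% in a dose series; inconclusive means first-round hits that could not be retested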;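 further: growth measured after seven days incubation then overnight dye step; 0% = bacteria only wells and 100% = bacteria with antibiotic; twin plates without the antibiotic show which effects depend on it; some results filed as inactive read as strong as hits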
YopH inh: YopH (Yersinia) phosphatase inhibition | fluorescence Ex485/Em525 | inhibition, %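 (about 10 µM by stock and volumes)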 | actives 0.16% (n = 140,000);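 active means inhibition of 50% or more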;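 further: controls were vehicle for no effect and minimum signal wells for full effect; inactives centre near -20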
Arbovirus inh: arbovirus infection inhibition. inhibition, % at 10 µM. AID 1251. actives 0.37% (n = 200,000). arbovirus infection cell-based antiviral screen;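 active means inhibition from about 30%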;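 further: bluetongue infection of BSR cells; cell survival read as ATP light after 72 h; 0% = infected wells without compound and 100% = uninfected wells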
Arbovirus inh repeat: further read-out of Arbovirus inh, marked with its call; inhibition, %; measured here: 10K subset replicate screen; many hits read low in the repeat;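 first of two repeat runs on a subset; 0% = infected and 100% = uninfected wells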
* hit, by the source's call; ? = inconclusive; / = not tested or not shown.

Preview (2 entries):
SMILES	Mtb growth	RecA intein inh	Mtb betalactam	YopH inh	Arbovirus inh	others
NS(=O)(=O)c1ccc(CCNC(=O)/C=C/c2cccc([N+](=O)[O-])c2)cc1	-7.1%	0.3	-0.7	/	-0.4
O=C1N2CCCc3cccc(c32)C12Nc1ccccc1S2 (stereo unspecified)	7.2%	-6.5	/	-20.3	-5.1

This part in full, previewed entries included:
SMILES	Mtb growth	RecA intein inh	Mtb betalactam	YopH inh	Arbovirus inh	others
NS(=O)(=O)c1ccc(CCNC(=O)/C=C/c2cccc([N+](=O)[O-])c2)cc1	-7.1%	0.3	-0.7	/	-0.4
O=C1N2CCCc3cccc(c32)C12Nc1ccccc1S2 (stereo unspecified)	7.2%	-6.5	/	-20.3	-5.1
COc1ccc(OC)c(NC(=O)CSc2nc(C)cs2)c1	-2.1%	3.0	-1.0	-36.7	0.8
O=C(CCC1CCCC1)NCCS(=O)(=O)N1CCN(c2ccccc2F)CC1	/	1.1	-12.5	/	/
COCc1cc(=O)[nH]c(SCCS(=O)(=O)c2ccc(C)cc2)n1	-0.6%	0.9	-2.9	/	/
CCSc1nc(C)c(C)c(=O)[nH]1	-3.8%	1.5	/	/	/
Cc1ccc(OCCCC(=O)Nc2ccc3c(c2)OCO3)cc1	26.4%	1.9	77.2	-37.9	-19.3
COc1ccc(/C=C/c2ccncc2)c2ccccc12	?	12.9	9.1	-9.5	-12.9
CCC(C)(C)NC(=O)CN(C(=O)c1csnn1)c1ccccc1-c1ccccc1	-6.0%	-0.3	-3.6	/	1.6
CC(=O)Nc1nc(-c2ccc([N+](=O)[O-])cc2)cs1	-3.9%	-1.9	5.2	/	-4.3
COc1c(C)cc(S(=O)(=O)NCc2ccco2)c(C)c1C	/	2.7	-2.4	/	/
C=CCN1N=C(c2ccc(NC(=O)c3ccccc3)cc2)CSC1=O	-10.4%	2.3	13.3	/	-7.0
O=C(CCl)NC(Cc1c[nH]c2ccc(OCc3ccccc3)cc12)C(=O)O (stereo unspecified)	/	8.2	1.6	/	/
CS(=O)(=O)N(CC(=O)Nc1c(F)cccc1F)c1ccc(C23CC4CC(CC(C4)C2)C3)cc1	0.9%	1.9	-4.9	-47.1	-4.1
O=C(C1=C[C@@H](c2ccccc2)C[C@@H](OCCCCO)O1)N1CCN(Cc2ccc3c(c2)OCO3)CC1	-8.0%	-0.9	-9.7	/	1.3
Cc1cc(C)cc(NC(=O)CSCc2cc(=O)n3ccsc3n2)c1	/	-1.9	1.8	/	/
COC(c1ccccc1)c1nc2ccccc2[nH]c1=O (stereo unspecified)	/	0.3	-5.9	/	/
COc1cc(/C=C/C(=O)NC(C)C2CC3CCC2C3)cc(OC)c1OC (stereo unspecified)	/	4.2	-7.9	/	/
CCOC(=O)c1ccccc1Nc1cn(C(C)=O)c2ccccc12	3.1%	5.0	69.5	6.3	-20.8
CCOC(=O)N1CCN(C(=O)C(=O)Nc2sc3c(c2C#N)CC(C)(C)OC3)CC1	/	-0.9	-2.5	/	/
O=C1NC(c2ccc(Br)cc2)Nc2ccccc21 (stereo unspecified)	/	-2.8	1.9	/	/
Cc1nn(Cc2ccccc2Cl)c(C)c1C(=O)Nc1nnc(C2CC2)s1	-9.3%	-1.9	-4.5	-49.7	-0.1
CC(=O)Oc1ccc(OC(C)=O)c(S(=O)(=O)c2ccc(C)c(C)c2)c1	/	3.6	-1.4	/	/
CC1CCCC(C)N1/N=C/c1ccc([N+](=O)[O-])cc1 (stereo unspecified)	/	1.5	-4.7	/	/
COc1ccc(CC(=O)N[C@@H](CCSC)c2nc3ccccc3[nH]2)cc1	-5.2%	/	-5.8	/	11.2
C[C@]12CC[C@@H]3c4ccc(OC(=O)c5ccccc5)cc4CC[C@H]3[C@@H]1CC[C@@H]2O	40.7%	0.6	26.3	-15.6	-19.1
CCC(Oc1ccccc1)C(=O)Nc1ncc([N+](=O)[O-])s1 (stereo unspecified)	-2.9%	17.2	1.0	/	19.9
CC1(C)CC(c2nc(-c3ccc([N+](=O)[O-])cc3)cs2)CCO1 (stereo unspecified)	20.0%	3.8	13.5	/	10.7
Cc1cccc(NC(=S)N2CCN(Cc3ccc4c(c3)OCO4)CC2)c1C	5.7%	1.5	-6.8	-25.0	-8.2
CC1CN(S(=O)(=O)c2cccc(-c3csc(-c4ccccc4)n3)c2)CC(C)O1 (stereo unspecified)	3.1%	4.2	0.4	-15.7	-1.5
CCOC(=O)N1CCN(CC(O)c2ccc3c(c2)CCN3)CC1 (stereo unspecified)	2.5%	15.0	/	9.6	-2.1
CC(C)(C)c1ccc(C(=O)N/C(=C\c2cccc([N+](=O)[O-])c2)C(=O)Nc2cccc(C(=O)O)c2)cc1	/	3.6	-0.7	/	/
Cn1ncc(-c2ccno2)c1C(=O)O	-3.2%	-5.5	6.4	/	4.6
O=C(CN1C(=O)S/C(=C\C=C\c2ccccc2)C1=O)Nc1ccc(O)cc1	12.2%	3.9	-3.2	1.5	-17.9
Cc1ccc2nc(Cl)c(/C=N/NC(=O)c3ccccc3O)cc2c1	1.3%	-4.3	53.3	-25.6	-2.1
COC(=O)c1c(-c2cccc(C)c2)csc1NC(=O)C1CCCO1 (stereo unspecified)	1.8%	13.3	6.5	/	-12.3
CS(=O)(=O)N(CC(=O)N1CCN(C(c2ccccc2)c2ccccc2)CC1)C1CCCCC1	-1.1%	4.2	-3.8	-12.2	18.6
Cc1ccc(NC(=O)CN(C)C(=O)c2ccc(Br)o2)cc1	/	0.8	-1.1	/	/
Cc1cc(C(=O)OCC(=O)N(C)c2ccccc2)ccc1[N+](=O)[O-]	-3.3%	2.0	3.1	/	-0.6
CCN(CC)c1ncnc2c1sc1nc(C)cc(C)c12	5.5%	0.7	10.0	-11.8	-7.9
COc1ccccc1N1CCN(C2CCCN(C(=O)CN3CCCCC3=O)C2)CC1 (stereo unspecified)	/	-3.5	-6.8	/	/
O=C(OCCN1CCOCC1)C1(c2ccccc2)CCCC1	-3.2%	-1.8	4.6	/	3.2
C=CCn1c(SCc2c(C)noc2C)nc2sc3c(c2c1=O)CCCCC3	-6.8%	5.3	3.5	-92.8	-5.6
CCOC(=O)c1oc2ccccc2c1CSc1nnnn1-c1ccccc1	-7.6%	1.0	6.9	-19.7	1.8
Cc1cc(N(C)C)ccc1N=Nc1ccc(N)cc1	/	-1.8	23.4	/	/
COc1cccc(OCCOc2ccccc2OC(C)C)c1	3.2%	5.2	5.6	-26.1	-2.1
O=C1CN(c2ccccc2)C(=O)N1	-4.8%	-1.0	-9.1	/	/
COc1cc(C2SCCS2)cc(Br)c1Oc1ncccc1[N+](=O)[O-]	-2.6%	/	-6.9	/	/
COC(=O)CN1C(=O)C(C)=C(c2ccc(C)cc2)S1(=O)=O	2.1%	-1.6	82.0	-24.0	-3.8
Nc1csnc1C(=O)O	-1.8%	2.6	1.9	2.8	-0.5
C=CCNc1nc(Nc2ccc(OC)cc2)nc(OCC)n1	11.2%	-0.8	5.5	-26.7	-7.4
COCCCNC(=S)N1CCN(c2nc(-c3ccc(F)cc3)cs2)CC1	/	2.7	8.9	/	/
Cc1ccc(OCc2cc(C(=O)N(CCO)Cc3cccs3)no2)cc1C	/	2.0	-1.3	/	/
CCCCNC(=O)C(c1ccc(-c2ccccc2)cc1)N(CCN1CCOCC1)C(=O)CCCCCN1C(=O)NC(c2ccc([N+](=O)[O-])cc2)C(C(=O)OCc2ccccc2)=C1C (stereo unspecified)	-1.2%	/	/	-19.0	0.0
COc1ccc(C)cc1S(=O)(=O)NC1CC1	/	-0.6	-8.0	/	/
CCCC(=O)N1CCN(c2ccc([N+](=O)[O-])cc2Cl)CC1	6.8%	2.4	8.3	-31.1	9.1
O=C(N/N=C/c1ccccc1C(=O)O)c1ccccc1Br	23.4%	-1.2	-8.9	/	17.4
CCOC(=O)C1=C(N)Oc2c(oc(CO)cc2=O)C1c1c(F)cccc1Cl (stereo unspecified)	-3.9%	6.7	-7.1	-35.8	-2.6
CC1CCCCN1S(=O)(=O)c1ccc(S(=O)(=O)N2CCCC2)cc1 (stereo unspecified)	/	-1.3	2.9	/	/
c1ccc(-c2c3ccccc3nc3[nH]c4ccccc4c23)cc1	-0.3%	-3.6	23.1	-32.1	1.6

A draw from above in order of length of the SMILES, smallest number first.
SMILES	Mtb growth	RecA intein inh	Mtb betalactam	YopH inh	Arbovirus inh	others
Nc1csnc1C(=O)O	-1.8%	2.6	1.9	2.8	-0.5
O=C1CN(c2ccccc2)C(=O)N1	-4.8%	-1.0	-9.1	/	/
COc1ccc(C)cc1S(=O)(=O)NC1CC1	/	-0.6	-8.0	/	/
Cc1cc(N(C)C)ccc1N=Nc1ccc(N)cc1	/	-1.8	23.4	/	/
C=CCNc1nc(Nc2ccc(OC)cc2)nc(OCC)n1	11.2%	-0.8	5.5	-26.7	-7.4
O=C(N/N=C/c1ccccc1C(=O)O)c1ccccc1Br	23.4%	-1.2	-8.9	/	17.4
c1ccc(-c2c3ccccc3nc3[nH]c4ccccc4c23)cc1	-0.3%	-3.6	23.1	-32.1	1.6
COC(=O)CN1C(=O)C(C)=C(c2ccc(C)cc2)S1(=O)=O	2.1%	-1.6	82.0	-24.0	-3.8
C=CCn1c(SCc2c(C)noc2C)nc2sc3c(c2c1=O)CCCCC3	-6.8%	5.3	3.5	-92.8	-5.6
COc1cc(C2SCCS2)cc(Br)c1Oc1ncccc1[N+](=O)[O-]	-2.6%	/	-6.9	/	/
COc1ccccc1N1CCN(C2CCCN(C(=O)CN3CCCCC3=O)C2)CC1 (stereo unspecified)	/	-3.5	-6.8	/	/
CCOC(=O)C1=C(N)Oc2c(oc(CO)cc2=O)C1c1c(F)cccc1Cl (stereo unspecified)	-3.9%	6.7	-7.1	-35.8	-2.6
CCCCNC(=O)C(c1ccc(-c2ccccc2)cc1)N(CCN1CCOCC1)C(=O)CCCCCN1C(=O)NC(c2ccc([N+](=O)[O-])cc2)C(C(=O)OCc2ccccc2)=C1C (stereo unspecified)	-1.2%	/	/	-19.0	0.0

(further entries)
SMILES	Mtb growth	RecA intein inh	Mtb betalactam	YopH inh	Arbovirus inh	others
Cc1ccccc1OCCNC(=O)c1ccc2ccccc2n1	12.2%	11.0	5.5	-19.6	1.5
Cc1nn2c(NCCCN(C)C)c3c(nc2c1-c1ccccc1)CCCC3	10.8%	0.1	-1.9	/	/
CN(C)C(=O)CCC(=O)N(C)CC1CCCN(CCc2ccc(F)cc2)C1 (stereo unspecified)	/	-1.0	1.2	/	/
O=c1nc(N(c2ccccc2)c2ccccc2)[nH]c(=O)[nH]1	-8.4%	1.8	-9.0	-33.5	1.4
O=C(Oc1ccc(Cl)c2cccnc12)N1CCCCCC1	16.9%	3.1	63.3	28.5	-1.2
Cc1ccc(C(C)C)cc1OCCn1cncn1	/	-1.2	-4.7	/	/
O=C1c2cccnc2C(=O)N1Cc1cccs1	4.5%	-1.8	-4.0	-23.3	-1.1	Arbovirus inh repeat=0.5
COc1ccc(OCC(=O)Nc2ccccc2-c2ccccc2)cc1	8.3%	10.6	-2.2	/	-18.2
O=C(Nc1cccc(C(F)(F)F)c1)Oc1ccc(Cl)c2cccnc12	?	-2.7	99.8	/	/
COc1ccc(CNC(=O)/C(C#N)=C2\N=C(NC(=O)c3cccs3)c3ccccc32)cc1	?	2.0	97.7	-10.0	-2.0
CCOC(=O)C(Cc1ccccc1)NC(=O)CCc1nnc2ccc(N3CCOCC3)nn12 (stereo unspecified)	/	-4.4	0.3	/	/
Cc1ccc(S(=O)(=O)N2CCN(S(=O)(=O)N3CCOCC3)CC2)cc1C	-3.5%	2.7	-7.3	-19.8	7.0
COc1cc(CNCC(O)c2ccccc2)ccc1OCc1ccc(Cl)nc1 (stereo unspecified)	-6.0%	1.1	-15.6	11.9	-9.4
CN(C)Cc1cccc([N+](=O)[O-])c1O	0.4%	3.7	-3.5	/	/

An excerpt. The share of hits here may be higher or lower than overall.
